# Screens deposited in PubChem by National Center for Advancing Translational Sciences (NCATS).
# CtBP-E1A blk – qHTS Assay for Inhibitors of the CtBP/E1A Interaction. AlphaScreen GST-E1A/His-CtBP binding, 1536-well; hits give low values; control for the full effect not named in the record. activity change, % (no concentration beside the values). hit rate 0.49% among 340,000. AID 651724, 2012; in the data active means activity change below about -65%; inconclusive means about -30% to -65%; inactive means above about -30%; note: % is set by controls: 0 for no effect and ±100 for the full control effect; compound concentration not given in the record
#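 In 5 uL wells, 23 nL compound meets equimolar GST-E1A and His-CtBP (5X stock 125 nM each) for 2 h, 37 °C. Beads (5X, 50 ug/mL) then 1 h, 37 °C, dark.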
# D2 ag – Beta-Arrestin HTS for Positive Allosteric Modulators of the Human D2 Dopamine Receptor: Agonists | DiscoveRx PathHunter D2 beta-arrestin, luminescence, 90 min; 100% = 57 uM dopamine signal | activation, % (test concentration not listed) | hit rate 0.084% among 360,000; in the data active = activation above about 40%; inconclusive = about 15% to 40%; inactive = below about 15%; note: compound concentration not given in the record; the text of the record calls up to 30% inactive
# Target sequence (P14416 whole entry, looked up): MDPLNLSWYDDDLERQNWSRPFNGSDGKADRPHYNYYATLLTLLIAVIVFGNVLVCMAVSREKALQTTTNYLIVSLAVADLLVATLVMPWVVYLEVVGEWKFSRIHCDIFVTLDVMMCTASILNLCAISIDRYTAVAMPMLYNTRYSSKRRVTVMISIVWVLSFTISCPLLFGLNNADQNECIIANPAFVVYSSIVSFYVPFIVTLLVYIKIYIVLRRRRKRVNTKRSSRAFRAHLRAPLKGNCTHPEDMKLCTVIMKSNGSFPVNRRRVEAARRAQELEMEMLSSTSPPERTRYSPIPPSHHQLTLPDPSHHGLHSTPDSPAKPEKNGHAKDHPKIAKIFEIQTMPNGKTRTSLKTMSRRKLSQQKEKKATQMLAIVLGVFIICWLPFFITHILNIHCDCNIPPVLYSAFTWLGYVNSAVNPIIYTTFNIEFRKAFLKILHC
#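 Agonist mode: compounds alone added to overnight-plated D2 PathHunter cells for 90 min at 37 C, with 57 uM final dopamine (EC100) defining full response. Beta-arrestin recruitment detected by chemiluminescent reagent, read after 1 h at ambient temperature.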
# D2 PAM – Beta-Arrestin HTS for Positive Allosteric Modulators of the Human D2 Dopamine Receptor: Potentiators. hit rate 0.23% among 360,000. DiscoveRx D2 beta-arrestin cells, luminescence, 90 min; 100% = 57 uM dopamine signal. AID 624464, 2012. potentiation, % (no concentration beside the values); active = potentiation of 50% or more; inconclusive = 30% to 50%; inactive = 30% or less;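 note: compound concentration not given in the record; tested on top of an EC20 dose of dopamine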
#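 D2 cells co-treated with compound plus 50 nM dopamine (EC20) for 90 min at 37 deg C to detect potentiation. Beta-arrestin recruitment was read as enzyme-fragment luminescence after 1 h at ambient temperature. Full response was set by 57 uM dopamine.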
# TRPML1 ag – qHTS for Agonists of the Human Mucolipin Transient Receptor Potential 1 (TRPML1); Mucolipin-1 (Homo sapiens), Q9GZU1; TRPML1-expressing cells, Ca2+ dye fluorescence, FDSS; host cell line not named in the record; reference of the full effect not given here; activation, % (concentration not given with the values); hit rate 0.12% among 410,000; in the data active = activation above about 50%; inconclusive = about 30% to 50%; inactive = below about 30%; note: 0% is about no effect; the text of the record puts the active cut at 80%
# Target sequence (Q9GZU1 whole entry, looked up): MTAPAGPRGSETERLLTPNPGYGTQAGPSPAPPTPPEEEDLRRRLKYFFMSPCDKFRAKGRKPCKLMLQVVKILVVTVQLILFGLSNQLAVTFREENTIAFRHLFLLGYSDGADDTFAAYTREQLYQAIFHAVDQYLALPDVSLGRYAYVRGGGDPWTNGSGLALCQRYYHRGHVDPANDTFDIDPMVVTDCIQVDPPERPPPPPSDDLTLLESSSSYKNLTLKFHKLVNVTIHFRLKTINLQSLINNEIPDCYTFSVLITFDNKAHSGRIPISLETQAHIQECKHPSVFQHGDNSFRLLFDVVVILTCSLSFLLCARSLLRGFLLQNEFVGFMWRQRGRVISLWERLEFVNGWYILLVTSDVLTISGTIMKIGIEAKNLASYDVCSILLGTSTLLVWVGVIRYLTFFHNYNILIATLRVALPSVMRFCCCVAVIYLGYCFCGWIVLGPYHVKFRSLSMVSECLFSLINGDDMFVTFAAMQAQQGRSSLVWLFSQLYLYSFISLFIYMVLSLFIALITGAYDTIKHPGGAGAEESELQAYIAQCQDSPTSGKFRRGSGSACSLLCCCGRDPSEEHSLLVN
#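 In this qHTS format, compounds were pin-transferred onto Ca8-dye-loaded TRPML1-DL cells induced with Tet overnight, and intracellular Ca2+ fluorescence was recorded kinetically for 110 s after a 10 s baseline. A subsequent 4uM final 54-4 (EC80) addition followed by a second 110 s read served as the antagonist phase.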
# Six1-Eya2 blk – qHTS Assay for Inhibitors of the Six1/Eya2 Interaction; Homeobox protein SIX1 (Homo sapiens) + Protein phosphatase EYA2 (Homo sapiens), …; AlphaScreen GST-Six1/His-Eya2 binding, biochemical; hits give low values; control for the full effect not named in the record; activity change, % (test concentration not listed); hit rate 0.56% among 360,000; AID 651725, 2012; in the data active = activity change below about -65%; inconclusive = about -30% to -65%; inactive = above about -30%; note: % is set by controls: 0 for no effect and ±100 for the full control effect; compound concentration not given in the record
#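 GST-Six1 + His-Eya2 (5X stock: 250/500 nM); Tris pH 8.0, 300 mM NaCl, 0.05% BSA, 0.02% Tween 20; GSH donor/Ni acceptor beads; 1 h 37 °C dark; AlphaScreen readout.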
# PINK1 modulator – A Quantitative High throughput Screen to Identify Chemical Modulators of PINK1 Expression; PINK1 immunofluorescence, high-content cytometry, 24 h; Potency, µM (series often up to 76.6 µM), for the others: at the top dose activation (PINK1 increase), actives largely listed as activators; hit rate 0.2% among 410,000; AID 624263, 2012; active = well fitted activation curve with a large enough effect; inconclusive = small, poorly fitted or top-dose-only effect; inactive = flat fitted curve, though single readings scatter; cell line not stated here;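 note: potency is the fitted concentration of half-maximal effect; % of control where 0% means no effect; nearly all actives have a fitted effect of over 65% in size; a mitochondrial uncoupler was the plate control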
#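 Fluorescence from anti-PINK1 antibody, together with nuclear and cell stains, was scanned on a laser-scanning cytometer. Before staining, stable-line cells were incubated 24 hours with compounds at 5 concentrations; primary antibody 12 h at 10 degrees C.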
# Starred values were filed as active, the others as inactive; ? = inconclusive; / = no result given; & = joins results of further samples; [ ] = dose if it differs, or a comment.
nr	canonical_smiles	CtBP-E1A blk	D2 ag	D2 PAM
1	C#CCOCCOCCOCCNc1nc(N2CCN(C(=O)[C@H](CCCCN)n3cc(CCC(=O)O)nn3)CC2)nc(N2CCN(C(=O)[C@H](Cc3ccc(O)cc3)n3cc(CCO)nn3)CC2)n1	5	-4.2	-6
2	CCn1cc(CN2CCC(C(=O)Nc3ccc(Oc4cccnc4)cc3)CC2)c(C)n1	6	-5.6	-25
3	COc1ccc(C)cc1NC(=O)C(=O)NNC(=O)COc1ccc(Cl)cc1	3	-4.1	-10
4	COc1ccccc1C(O)c1ncc(-c2ccc(Cl)cc2)[nH]1 (stereo not drawn)	-3	-4.5	-11
5	Cn1c(N)c(C(=O)COC(=O)CNC(=O)c2ccccc2Cl)c(=O)n(C)c1=O	-1	0.7	0
6	CCOc1ccc(S(=O)(=O)N2CCC(C(=O)N3CCN(Cc4ccccc4)CC3)CC2)cc1	0	-2.9	-10
7	Cc1oc(-c2ccccc2Cl)nc1CS(=O)(=O)CC(=O)NC(C)c1ccccc1 (stereo not drawn)	1	-6.3	-2
8	CCOC(=O)c1nnn(CC(=O)Nc2ccccc2)c1C(=O)OCC	0	-2.0	-3
9	O=C(N/N=C/c1ccc2c(c1)OCO2)c1ccc2ccccc2n1	-7	-1.6	-7
10	COC(=O)CN1C(=O)[C@H]2[C@@H](c3ccc(C)o3)N3C(=O)CN(Cc4ccccn4)C(=O)[C@@]3(Cc3ccccc3)[C@H]2C1=O	8	-2.4	6
11	Nc1ncnc2c1ncn2[C@@H]1O[C@H](C(=O)NCCCN2CCCC2=O)[C@@H](O)[C@H]1O	-8	-4.1	-7
12	O=C(CN1CCc2ccccc2C1)Nc1cccc(S(=O)(=O)N2CCOCC2)c1	-12	8.1	-6

nr	TRPML1 ag	Six1-Eya2 blk	PINK1 modulator
1	1.0	4	-1.7%
2	0.2	-3	2.2%
3	0.6	26	3.1%
4	0.3	-5	0.0%
5	-0.1	-3	1.0%
6	1.1	18	1.3%
7	-0.3&2.9	-6	1.4%&2.3%
8	1.6	0	-1.2%
9	0.5	-10	2.1%
10	-0.6	2	1.2%
11	0.9	19	6.5%
12	2.1	1	0.0%

# Following part
nr	canonical_smiles	CtBP-E1A blk	D2 ag	D2 PAM
13	Nc1ccc(C(=O)C(=O)c2ccccc2)cc1	-3	-3.4	-4
14	Cc1cccc(CN(C)C[C@H]2OCc3cnnn3CCCC(=O)N([C@@H](C)CO)C[C@@H]2C)c1	-18	-4.6	-1
15	COc1ccc(/C=N/NC(=S)Nc2ccccc2[N+](=O)[O-])cc1O	-18	3.5	10
16	CC(C)N(C(=O)N1CCC(c2nc(-c3ccncc3)no2)CC1)C(C)C	5	-2.7	-8
17	OC(COc1ccc(-c2ccccc2)cc1)CN1CCCCC1 (stereo not drawn)	5	-6.4	-16
18	O=C(c1ccccc1)c1ccc(OC(=O)N2CCCC2)cc1	6	-0.1	-2
19	CCCS(=O)(=O)NC(=O)C1(C)CCCN(C(=O)CSc2ccccc2)C1 (stereo not drawn)	0	-3.0	3
20	CC(C)NS(=O)(=O)c1ccc(OCC(=O)N(C)Cc2ccccc2)cc1	9	-0.8	-13
21	CCOC(=O)C1(CCCc2ccccc2)CCN(Cc2cnn(C)c2)CC1	-1	1.6	-11
22	O=C(COC(=O)COc1ccccc1[N+](=O)[O-])NC1CCCCC1	/	-5.4	0
23	COc1ccc(N2CCN(C(=O)CNC(=O)c3ccc(C(C)(C)C)cc3)CC2)cc1	-9	-0.7	9
24	O=C1C(Cc2ccccc2)Nc2ncnc(N3CCN(c4ccccc4)CC3)c2N1Cc1ccccc1 (stereo not drawn)	-22	-7.4	-21

nr	TRPML1 ag	Six1-Eya2 blk	PINK1 modulator
13	1.7	-6	2.1%
14	-0.3	2	3.0%
15	2.6	?	4.3%
16	-0.4	1	-2.4%[38.3 µM]
17	0.0	-2	6.5%
18	2.0	3	2.8%
19	-0.4	-4	0.7%
20	2.0	6	2.9%[38.3 µM]
21	-0.7	-5	2.0%
22	-0.8	1	0.6%
23	0.1	-9	13%
24	-0.7	-20	1.9%

# Remaining list, next part.
nr	canonical_smiles	CtBP-E1A blk	D2 ag	D2 PAM
25	O=C(c1cccc(F)c1)N1CCN(S(=O)(=O)c2ccc(C(F)(F)F)cc2)CC1	0	-2.9	-3
26	O=C(CCS(=O)(=O)c1ccc(Cl)cc1)NC1CCCC1	-5	6.2	-7
27	COc1cc(-c2cc(C(=O)N3CCCCCC3)c3ccccc3n2)cc(OC)c1OC	12	-2.5	-11
28	O=C(O)C1CCCN(S(=O)(=O)c2ccc3c(c2)OCCO3)C1 (stereo not drawn)	1	-1.9	-3
29	Cc1csc2ncnc(N3CCN(C(=O)Nc4ccc(OC(F)(F)F)cc4)CC3)c12	/	-5.2	-24
30	COc1ccc(CCN(Cc2cc3cccc(C)c3[nH]c2=O)C(=O)NC2CCCCC2)cc1OC	-2	0.5	-1
31	COCCCNC(=O)c1cc2c(-c3cccc(OC)c3)nn(C)c2s1	?	4.6	-7
32	COc1ccc(NC(=O)C2CCCN(S(=O)(=O)c3cccc4nonc34)C2)cc1OC (stereo not drawn)	4	8.5	1
33	CCOC(=O)CNC(=O)CSc1nnc(NC(=O)c2ccc3c(c2)OCO3)s1	0	-2.5	-19
34	Clc1ccc(Cn2c(-c3cccnc3Cl)nc3ccccc32)cc1	5	0.4	1
35	CCCn1c(N)c(N(C)C)c(=O)n(CC(=O)Nc2ccc(OC(F)(F)F)cc2)c1=O	3	-2.4	-13
36	CC(=O)N1c2ccc(S(=O)(=O)NCC3CCC(C(=O)NC4CCCCC4C)CC3)cc2CC1C (stereo not drawn)	5	-0.4	6

nr	TRPML1 ag	Six1-Eya2 blk	PINK1 modulator
25	0.2	0	1.5%[38.3 µM]
26	-0.1	6	0.0%
27	1.0	-1	4.5%
28	-0.4	-1	-0.7%
29	-0.3	-2	18%
30	1.3	0	-0.9%
31	0.6&-1.3	-27	5.6%&14%
32	2.1	1	-2.3%
33	0.2	1	3.1%
34	-0.2	2	2.1%[38.3 µM]
35	0.1	0	-1.3%
36	-1.2	4	-0.5%

# Pulled by structure from above:
nr	canonical_smiles	CtBP-E1A blk	D2 ag	D2 PAM
3	COc1ccc(C)cc1NC(=O)C(=O)NNC(=O)COc1ccc(Cl)cc1	3	-4.1	-10
28	O=C(O)C1CCCN(S(=O)(=O)c2ccc3c(c2)OCCO3)C1 (stereo not drawn)	1	-1.9	-3
22	O=C(COC(=O)COc1ccccc1[N+](=O)[O-])NC1CCCCC1	/	-5.4	0
9	O=C(N/N=C/c1ccc2c(c1)OCO2)c1ccc2ccccc2n1	-7	-1.6	-7
4	COc1ccccc1C(O)c1ncc(-c2ccc(Cl)cc2)[nH]1 (stereo not drawn)	-3	-4.5	-11

nr	TRPML1 ag	Six1-Eya2 blk	PINK1 modulator
3	0.6	26	3.1%
28	-0.4	-1	-0.7%
22	-0.8	1	0.6%
9	0.5	-10	2.1%
4	0.3	-5	0.0%

# Next results
nr	canonical_smiles	CtBP-E1A blk	D2 ag	D2 PAM
37	COc1ccc(N2CCN(C(=O)c3ccc(C)c(NC(=O)c4ccco4)c3)CC2)cc1	8	-3.8	-4
38	O=C(O)/C=C/c1cn(-c2ccccc2)nc1-c1ccc(-c2ccc([N+](=O)[O-])cc2)o1	0	-0.4	2
39	C[C@@H](C(=O)NCc1ccc(S(C)(=O)=O)cc1)[C@@H]1C[C@@]1(C)[C@@H](NC(=O)OCc1ccccc1)c1ccccc1	-3	2.0	1
40	CN1/C(=C\C(=O)c2cccs2)Sc2ccccc21	28	2.3	-24
41	O=C(Cn1c2[n+](c3ccc(C(F)(F)F)cc31)CCCCC2)Nc1c(F)cccc1F	6	-0.5	-1
42	O=[N+]([O-])c1ccc(N2CCN(S(=O)(=O)c3ccc(Cl)c(Cl)c3)CC2)cc1NCCN1CCOCC1	-5	4.7	-5
43	Cn1nccc1NC(=O)Nc1cccc([N+](=O)[O-])c1	-3	-5.4	-16
44	Cn1nc(CC#N)c2c(=N)n(N)cnc21	-14	-1.8	-14
45	COc1ccc(C2=NOC(Cn3nc(-c4ccccc4)cc3C(=O)NCc3cccc(Br)c3)C2)cc1 (stereo not drawn)	-2	2.3	-2
46	CCCCN(C(=O)c1ccc(S(=O)(=O)N2CCOCC2)cc1)C1CCS(=O)(=O)C1 (stereo not drawn)	2	-1.8	28
47	CSc1ccc(Cc2ccc(Cl)cc2Cl)nn1	18	-1.4	-8
48	COCCN1CCN(Cc2cn(C)nc2-c2cccc(Cl)c2)CC1	0	-2.1	-15

nr	TRPML1 ag	Six1-Eya2 blk	PINK1 modulator
37	0.2	-3	1.9%
38	5.7	-2	-0.4%
39	0.5	7	1.3%
40	1.4	-12	0.0%
41	0.4	4	2.1%
42	0.1	5	1.4%
43	4.8	0	-0.6%
44	0.7	-24	0.7%
45	0.5	-1	-0.1%
46	0.8	3	1.0%
47	0.0	7	0.6%
48	-0.4	1	-1.3%

# The list goes on:
nr	canonical_smiles	CtBP-E1A blk	D2 ag	D2 PAM
49	CC1(C)CC2CC(C)(CN2C(=O)NC(=O)c2ccccc2)C1 (stereo not drawn)	-7	-3.0	6
50	CCOC(=O)N1CCN(c2cc(=O)n(C)c(=O)n2C)CC1	3	6.1	-4
51	CC(C)CCN(C)C1CCN(C(=O)Nc2c(F)cccc2F)CC1	4	-4.2	-6
52	COc1ccc(S(=O)(=O)N2CCCCCC2)cc1NC(C)C(=O)Nc1ccc(NC(C)=O)cc1 (stereo not drawn)	-15	-5.8	5
53	CCC(=O)N1CCc2cc(Br)cc(S(=O)(=O)N3CCCCCC3)c21	-5	-3.7	-7
54	O=C(Nc1ccccc1)C1CCCN(C(=O)c2ccc(F)cc2)C1 (stereo not drawn)	-1	-3.5	-2
55	NC(=O)NC[C@@H]1CC[C@@H](Cc2ccc(-c3ccccc3)cc2)O1	-1	-1.7	/
56	COc1cc(OC)cc(C(=O)OCC(=O)Nc2ccc3[nH]c(=O)[nH]c3c2)c1	2	1.2	-1

nr	TRPML1 ag	Six1-Eya2 blk	PINK1 modulator
49	-0.8	2	-0.3%
50	0.2	4	-0.6%
51	-0.1	-2	1.1%
52	-0.2	5	0.1%
53	0.7	-2	1.3%
54	0.2	-1	-1.3%
55	-0.6	0	-0.6%
56	-0.5	-2	4.5%
